Compound activity deposited in PubChem by Broad Institute.
FGF22 binding: binders of recombinant human FGF22 by thermal shift; Q9HCT0; SYPRO orange fluorescence; percent of sucrose octasulfate shift, DMSO zero; calls only at 9.99 µM; 1.5% of 340,000 active; AID 651658;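 active = melting point raised past a set limit in the mean and every replicate; three in four hits are not shown here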
Target sequence (Q9HCT0 whole entry, looked up): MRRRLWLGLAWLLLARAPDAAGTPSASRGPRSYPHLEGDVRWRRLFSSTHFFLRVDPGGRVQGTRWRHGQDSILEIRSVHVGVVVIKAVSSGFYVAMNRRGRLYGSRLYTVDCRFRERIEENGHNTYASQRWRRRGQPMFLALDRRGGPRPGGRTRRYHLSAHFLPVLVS
Calls only; i = inactive. The list is partial (hit frequency here may not be typical).

SMILES	FGF22 binding
C[C@H](CO)N1C[C@H](C)[C@H](CN(C)S(=O)(=O)c2ccc(Oc3ccccc3)nc2)OCc2cn(nn2)CCCC1=O	i
Cc1ccc(-c2ccc3c(c2)O[C@@H](CN(C)Cc2cccc(C(=O)O)c2)[C@H](C)CN([C@H](C)CO)S3(=O)=O)cc1	i
C[C@H](CO)N1C[C@H](C)[C@H](CN(C)C(=O)Nc2ccc3c(c2)OCO3)Oc2ccc(NS(=O)(=O)c3cn(C)cn3)cc2C1=O	i
CCCNC(=O)N1CC2(CCN(Cc3cccc(OC)c3)CC2)c2c(n(C)c3cc(OC)ccc23)[C@@H]1CO	i
COc1ccc(S(=O)(=O)N2C[C@@H](O)COC[C@@H]3O[C@@H](CC(=O)N[C@@H]4CCN(Cc5ccccc5)C4)CC[C@H]32)cc1	i
O=C(Nc1ccc2c(c1)OCO2)N[C@@H]1CC[C@@H](CC(=O)N2CCN(c3ccccc3)CC2)O[C@H]1CO	i
C[C@H]1CN([C@@H](C)CO)C(=O)c2cccc(N(C)C)c2O[C@@H]1CN(C)Cc1ccc2c(c1)OCO2	i
O=C(C[C@@H]1CC[C@@H](NS(=O)(=O)c2ccccc2F)[C@@H](CO)O1)NCCCN1CCOCC1	i
COc1ccc(NC(=O)Nc2ccc3c(c2)[C@H]2C[C@H](CC(=O)NCc4ccncc4)O[C@@H](CO)[C@H]2O3)cc1	i
C[C@@H]1CCCCO[C@@H](CN(C)C(=O)c2ccncc2)[C@H](C)CN([C@H](C)CO)C(=O)c2cc(NC(=O)C3CCCCC3)ccc2O1	i
C[C@@H]1CCCCO[C@@H](CN(C)Cc2ccc(Cl)c(Cl)c2)[C@@H](C)CN([C@@H](C)CO)C(=O)c2cc(NS(C)(=O)=O)ccc2O1	i
C[C@@H]1CCCCO[C@@H](CN(C)C(=O)C2CCCCC2)[C@H](C)CN([C@H](C)CO)C(=O)c2cc(NC(=O)Nc3ccccc3)ccc2O1	i
C[C@@H]1CN([C@@H](C)CO)C(=O)Cc2cc(NC(=O)Nc3cccc4ccccc34)ccc2O[C@H]1CN(C)Cc1ccc(C(F)(F)F)cc1	i
COCC(=O)N1CC[C@@H]2[C@H]1c1cc(-c3ccc(F)cc3)ccc1N(C)[C@H]2CO	i
CCCNC(=O)N1C[C@H]2[C@@H](c3ccccc31)[C@H](CO)N2CC1CCCCC1	i
C[C@H](CO)N1C[C@H](C)[C@H](CN(C)S(=O)(=O)c2cccc(F)c2)Oc2ncc(C#Cc3ccc(F)cc3)cc2C1=O	i
N#C[C@@H]1[C@@H](c2ccccc2-c2ccccc2)[C@@H](CO)N1C(=O)NC1CCCC1	i
O=C(Nc1ccccc1F)N[C@@H]1CC[C@H](CCNC(=O)C2CCCCC2)O[C@H]1CO	i
O=C(C[C@H]1CC[C@H]2NC[C@H](O)COC[C@@H]2O1)Nc1nccs1	i
C[C@H](CO)N1C[C@H](C)[C@H](CN(C)S(=O)(=O)c2cccc(F)c2)Oc2ncc(C#CC3(O)CCCC3)cc2C1=O	i
CC(C)C[C@H](NS(=O)(=O)c1ccc(F)cc1F)C(=O)N1CCC[C@H]1C(=O)NCc1ccccc1	i
C[C@@H]1CN([C@@H](C)CO)C(=O)c2cccc(NS(=O)(=O)c3ccc(Cl)cc3)c2O[C@@H]1CN(C)C(=O)Nc1ccc(F)cc1	i
CC(C)(O)C#Cc1ccc([C@H]2[C@@H](CO)N3CCCCN(C(=O)c4cccnc4)C[C@@H]23)cc1	i
N#C[C@H]1[C@@H](c2ccc(-c3ccncc3)cc2)[C@@H](CO)N1C(=O)C1CCCC1	i
N#Cc1ccc2nc(-c3ccc(CN4CCC5(CC4)CNc4ccccc45)cc3)c(-c3ccccc3)nc2c1	i
CO[C@@H]1CC[C@@H]2CCOc3ccc(C#N)cc3C(=O)N(C)C[C@@H](OC)[C@@H](C)C(=O)N(C)C[C@H]1O2	i
COc1cccc(-c2ccc(C3[C@H]4CNC[C@@H]3N4C(=O)Nc3ccc4c(c3)OCO4)cc2)c1 (stereo partly drawn)	i
N#C[C@H]1[C@H](c2ccccc2-c2ccccc2F)[C@H](CO)N1C(=O)C1CC1	i
COc1ccccc1S(=O)(=O)N[C@@H]1C=C[C@@H](CC(=O)N2CCOCC2)O[C@H]1CO	i
O=C(CC1CC1)N[C@H]1CC[C@H](CCNS(=O)(=O)c2ccc(Cl)cc2)O[C@H]1CO	i
COCC(=O)N(C)C[C@@H]1Oc2ncc(C#Cc3ccc(OC)cc3)cc2C(=O)N([C@H](C)CO)C[C@H]1C	i
CN1c2ccc(C#Cc3cccnc3)cc2[C@@H]2[C@@H](CCN2S(=O)(=O)c2cccc(F)c2)[C@@H]1CO	i
CCC(=O)Nc1ccc2c(c1)C(=O)N(C)[C@H]1CC[C@@H](CC(=O)NCc3ccc(OC)cc3)O[C@H]1CO2	i
Cc1ccc(S(=O)(=O)N(C)C[C@@H]2OCCCC[C@@H](C)Oc3ccc(NC(=O)c4ccccc4)cc3C(=O)N([C@@H](C)CO)C[C@H]2C)cc1	i
C[C@H](CO)N1C[C@H](C)[C@H](CN(C)CC2CCCCC2)Oc2c(NC(=O)Nc3ccccc3)cccc2C1=O	i
C[C@@H]1CN([C@@H](C)CO)S(=O)(=O)c2ccc(C#Cc3cccc(F)c3)cc2O[C@H]1CN(C)C(=O)NC1CCCCC1	i
COc1cccc(-c2ccc([C@H]3[C@@H](CO)N4CCCCN(S(=O)(=O)c5cccs5)C[C@@H]34)cc2)c1	i
Cc1noc(C)c1NC(=O)Nc1ccc2c(c1)C(=O)N([C@@H](C)CO)C[C@@H](C)[C@@H](CN(C)C(=O)Nc1ccc(F)cc1)OCCCC[C@@H](C)O2	i
O=C(N[C@@H]1CC[C@@H](CCNS(=O)(=O)c2ccc(Cl)cc2)O[C@H]1CO)c1cccnc1	i
C[C@@H](C(=O)N(C)C[C@H]1OCc2ccccc2-c2ccccc2C(=O)N([C@@H](C)CO)C[C@@H]1C)c1ccccc1	i
CN1CCCCN2[C@H](CO)[C@@H](c3ccc(-c4cccnc4)cc3)[C@H]2C1	i
COCCNC(=O)C[C@H]1C=C[C@H](NC(=O)NC2CCCC2)[C@@H](CO)O1	i
C[C@@H]1CN([C@H](C)CO)C(=O)CCCn2cc(nn2)CO[C@H]1CN(C)Cc1cccc(C(=O)O)c1	i
C[C@H](CO)N1C[C@H](C)[C@H](CN(C)S(=O)(=O)c2ccc(Cl)cc2)Oc2c(NC(=O)Nc3ccc(C(F)(F)F)cc3)cccc2C1=O	i
C[C@@H]1CN([C@@H](C)CO)C(=O)c2cc(NS(=O)(=O)c3cccs3)ccc2O[C@H]1CN(C)Cc1ccc(Oc2ccccc2)cc1	i

10 entries already listed, ordered by formula weight, rising:
SMILES	FGF22 binding
CN1CCCCN2[C@H](CO)[C@@H](c3ccc(-c4cccnc4)cc3)[C@H]2C1	i
O=C(N[C@@H]1CC[C@@H](CCNS(=O)(=O)c2ccc(Cl)cc2)O[C@H]1CO)c1cccnc1	i
C[C@@H]1CN([C@H](C)CO)C(=O)CCCn2cc(nn2)CO[C@H]1CN(C)Cc1cccc(C(=O)O)c1	i
CCC(=O)Nc1ccc2c(c1)C(=O)N(C)[C@H]1CC[C@@H](CC(=O)NCc3ccc(OC)cc3)O[C@H]1CO2	i
COc1cccc(-c2ccc([C@H]3[C@@H](CO)N4CCCCN(S(=O)(=O)c5cccs5)C[C@@H]34)cc2)c1	i
C[C@@H](C(=O)N(C)C[C@H]1OCc2ccccc2-c2ccccc2C(=O)N([C@@H](C)CO)C[C@@H]1C)c1ccccc1	i
C[C@H](CO)N1C[C@H](C)[C@H](CN(C)CC2CCCCC2)Oc2c(NC(=O)Nc3ccccc3)cccc2C1=O	i
C[C@@H]1CN([C@@H](C)CO)S(=O)(=O)c2ccc(C#Cc3cccc(F)c3)cc2O[C@H]1CN(C)C(=O)NC1CCCCC1	i
Cc1ccc(S(=O)(=O)N(C)C[C@@H]2OCCCC[C@@H](C)Oc3ccc(NC(=O)c4ccccc4)cc3C(=O)N([C@@H](C)CO)C[C@H]2C)cc1	i
Cc1noc(C)c1NC(=O)Nc1ccc2c(c1)C(=O)N([C@@H](C)CO)C[C@@H](C)[C@@H](CN(C)C(=O)Nc1ccc(F)cc1)OCCCC[C@@H](C)O2	i

(list continues)
SMILES	FGF22 binding
C[C@@H]1CN([C@H](C)CO)S(=O)(=O)c2ccc(C#Cc3ccccc3)cc2O[C@H]1CN(C)S(C)(=O)=O	i
C[C@@H]1CCCCO[C@H](CN(C)C(=O)c2ccccc2)[C@H](C)CN([C@H](C)CO)C(=O)c2cc(NC(=O)c3ccncc3)ccc2O1	i
C[C@H](CO)N1C[C@H](C)[C@H](CN(C)C(=O)Cc2ccncc2)Oc2ncc(C#CCN(C)C)cc2C1=O	i
C[C@H]1CN([C@@H](C)CO)C(=O)c2cccc(NS(=O)(=O)c3cccs3)c2O[C@H]1CN(C)Cc1ccc2c(c1)OCO2	i
C[C@H]1CCCCO[C@@H](CN(C)Cc2ccccc2)[C@@H](C)CN([C@@H](C)CO)C(=O)c2cc(NC(=O)CCC(F)(F)F)ccc2O1	i
Cc1ccc(Oc2cccc3c2S(=O)(=O)N([C@H](C)c2ccccc2)C[C@@H](COCc2ccccc2)O3)cc1	i
CCS(=O)(=O)N1CCC2(CC1)CN(C(=O)NC(C)C)[C@H](CO)c1c2c2ccc(OC)cc2n1C	i
CC(C)C[C@@H]1COc2cccc(NC3CC3)c2S(=O)(=O)N1	i
COc1cccc(CNC(=O)[C@H]2CCCN2C(=O)[C@H]2CCCN2C(=O)c2cccc3ccccc23)c1	i
C[C@@H]1CN([C@H](C)CO)C(=O)c2cccc(NC(=O)c3cnccn3)c2O[C@@H]1CN(C)Cc1ccc(Cl)c(Cl)c1	i
O=C(NCC[C@H]1CC[C@H](NS(=O)(=O)Cc2ccccc2)[C@@H](CO)O1)C1CCCCC1	i
C[C@H]1CCCCO[C@H](CN(C)C(=O)CCCN(C)C)[C@@H](C)CN([C@@H](C)CO)C(=O)c2cc(NS(C)(=O)=O)ccc2O1	i
O=C(C[C@H]1C=C[C@@H](NC(=O)Nc2cc(F)ccc2F)[C@@H](CO)O1)NCc1ccccn1	i
CC(C)C#Cc1cnc2c(c1)C(=O)N([C@H](C)CO)C[C@@H](C)[C@@H](CN(C)C(=O)Nc1cccc(F)c1)O2	i
COc1ccc(CN(C)C[C@@H]2OCCCC[C@@H](C)Oc3ccc(NC(=O)NC4CCCCC4)cc3C(=O)N([C@H](C)CO)C[C@@H]2C)cc1	i
O=C(C[C@@H]1CC[C@@H]2[C@H](COC[C@H](O)CN2C(=O)c2ccc(F)cc2)O1)N1CCCCC1	i
C[C@H]1CN([C@@H](C)CO)C(=O)c2cc(NC(=O)Cn3cnnn3)ccc2O[C@H]1CN(C)S(=O)(=O)c1ccc(Cl)cc1	i
CNC(=O)C[C@@H]1CC[C@H]2[C@H](COc3ccc(NC(=O)c4ccc(OC)cc4)cc3C(=O)N2C)O1	i
Cc1noc(C)c1NC(=O)N(C)C[C@H]1Oc2c(NC(=O)Nc3ccc(C(F)(F)F)cc3)cccc2C(=O)N([C@@H](C)CO)C[C@H]1C	i
Cc1ccc(NC(=O)NNC(=O)CSC2CCc3ccccc32)c(C)c1 (stereo not drawn)	i
C[C@H](O)C#Cc1ccc([C@@H]2[C@H](CO)N3CCCCN(CC4CCOCC4)C[C@@H]23)cc1	i
CC(=O)N(C)C[C@H]1Oc2ncc(C#CCC3CCCC3)cc2C(=O)N([C@@H](C)CO)C[C@@H]1C	i
COc1ccccc1-c1cn(CC[C@H]2CC[C@H](NC(=O)Cc3ccccn3)[C@H](CO)O2)nn1	i
CN1CCCCN2[C@H](C1)[C@H](c1ccc(-c3ccc(F)cc3)cc1)[C@@H]2CO	i
COCCN(C[C@H]1N[C@H](CO)[C@@H]1c1ccc(-c2cccc(F)c2)cc1)C(C)=O	i
CO[C@@H]1CN(C)C(=O)c2ccc(NC(=O)c3cc(C)on3)cc2OC[C@@H](C)N(S(=O)(=O)c2cccc(Cl)c2)C[C@H]1C	i
COC(=O)C1=C(C)N(Cc2cccc(C(F)(F)F)c2)C(=NCC2CC2)NC1c1ccc(F)cc1 (stereo not drawn)	i
Cc1noc(C)c1NC(=O)N(C)C[C@@H]1Oc2c(NC(=O)C3CCOCC3)cccc2C(=O)N([C@@H](C)CO)C[C@@H]1C	i
CO[C@H]1CN(C)C(=O)c2cc(C#N)ccc2OC[C@@H]2O[C@H](CC[C@H]2OC)CCN(C)C(=O)[C@@H]1C	i
COc1ccc2c3c(n(C)c2c1)[C@H](CO)N(C(=O)c1cccnc1)CC31CCN(S(=O)(=O)c2ccccc2)CC1	i
CN1c2ccc(-c3ccc(C#N)cc3)cc2[C@@H]2[C@@H](CCN2S(=O)(=O)c2cccc(F)c2)[C@H]1CO	i
C[C@H](O)C#Cc1cnc2c(c1)C(=O)N([C@H](C)CO)C[C@H](C)[C@@H](CN(C)Cc1cccc(C(=O)O)c1)O2	i
Cc1ccccc1-c1cnc2c(c1)C(=O)N([C@H](C)CO)C[C@H](C)[C@@H](CN(C)Cc1cccnc1)O2	i
O=C(c1ccccn1)N1C[C@H]2[C@@H](c3ccccc31)[C@H](CO)N2C(=O)C1CCCC1	i
Cc1ccc(S(=O)(=O)Nc2ccc3c(c2)CC(=O)N([C@H](C)CO)C[C@@H](C)[C@@H](CN(C)C(=O)Nc2ccc4c(c2)OCO4)O3)cc1	i
C[C@H](CO)N1C[C@H](C)[C@H](CN(C)C(=O)c2ccncc2)OCCCC[C@H](C)Oc2ccc(NC(=O)Cc3ccccc3)cc2C1=O	i
COc1ccccc1C#Cc1ccc2c(c1)O[C@H](CN(C)C(C)=O)[C@@H](C)CN([C@@H](C)CO)S2(=O)=O	i
O=C(c1ccc2c(c1)OCO2)N1CC(=O)N2[C@H](CO)[C@H](c3ccc(C#CCC4CCCC4)cc3)[C@H]2C1	i
Cc1noc(C)c1NC(=O)NCC[C@@H]1CC[C@@H](NC(=O)Nc2cccc(Cl)c2)[C@@H](CO)O1	i
COc1ccc(S(=O)(=O)N(C)C[C@H]2Oc3ccc(NC(=O)Nc4ccc5c(c4)OCO5)cc3C(=O)N([C@@H](C)CO)C[C@H]2C)cc1	i
